Source: PubChem
UUG fidelity: modulators of start codon recognition fidelity in yeast | 0.13% of 350,000 active | activity score, % at 18.7 µM | S. cerevisiae UUG-firefly luciferase reporter, luminescence/redox ratio;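 active = replicate mean at a twofold rise or more, about +100% in these data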;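 also: firefly luciferase made from a UUG start codon reports start codon fidelity; reporter light over untreated wells divided by growth signal over untreated wells; some hits fall short of that in this replicate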
The depositor's hits bear a star. A portion of the library; rates above refer to the full screens.

#	structure	UUG fidelity
1	C[C@H]1CN([C@@H](C)CO)C(=O)c2cccc(NC(=O)C3CCOCC3)c2O[C@@H]1CN(C)Cc1ccc(C(F)(F)F)cc1	-1.9
2	C/C=C/c1ccc([C@@H]2[C@@H](CNC(C)=O)N(Cc3ccccn3)[C@H]2CO)cc1	-11.6
3	COc1ccccc1CN1[C@@H]2CN(C(=O)C3CCCCC3)c3ccccc3[C@@H]2[C@@H]1CO	-2.5
4	CC(C)(O)C#Cc1ccc([C@@H]2[C@H](CO)N3CCCCN(C(=O)c4cccc(F)c4)C[C@@H]23)cc1	9.8
5	COCC#Cc1ccc([C@H]2[C@H]3CN(S(=O)(=O)c4ccc(OC)cc4)CCCCN3[C@H]2CO)cc1	-0.9
6	C[C@@H]1CN([C@H](C)CO)C(=O)Cc2cc(NC(=O)Nc3ccc(C(F)(F)F)cc3)ccc2O[C@H]1CN(C)Cc1ccncc1	-3.0
7	CO[C@H]1CN(C)C(=O)c2cc(NC(=O)C3CC3)ccc2OC[C@@H](C)NC[C@H]1C	-1.8
8	COCCN(C[C@@H]1[C@@H](c2ccccc2)[C@H](CO)N1C(C)=O)C(=O)c1ccccc1	1.0
9	CCC(=O)Nc1ccc2c(c1)C(=O)N(C)C[C@H](OC)[C@@H](C)CN(C(=O)Cc1cccnc1)[C@@H](C)CO2	-10.0
10	CC(C)NC(=O)N1[C@H](CO)[C@H](c2ccccc2)[C@@H]1CNC(=O)CN(C)C	2.9
11	COc1ccc(NC(=O)Nc2ccc3c(c2)C(=O)N([C@H](C)CO)C[C@@H](C)[C@@H](CN(C)Cc2ccncc2)O3)cc1	-9.0
12	CNC[C@@H]1Oc2c(NC(=O)C3CCCCC3)cccc2C(=O)N([C@H](C)CO)C[C@@H]1C	-19.8
13	CC(=O)N1[C@H](CO)[C@H](c2ccc(-c3ccc(F)cc3)cc2)[C@H]1CNC(=O)C1CC1	1.9
14	CO[C@@H]1CN(C)C(=O)c2ccc(NC(=O)c3cc(C)on3)cc2OC[C@@H](C)NC[C@H]1C	-9.4
15	C[C@@H]1CN([C@@H](C)CO)C(=O)c2cccc(NS(C)(=O)=O)c2O[C@H]1CN(C)S(=O)(=O)c1cccs1	-3.9
16	C[C@@H]1CN([C@@H](C)CO)C(=O)c2cc(NC(=O)Nc3ccc4c(c3)OCO4)ccc2O[C@@H]1CN(C)S(C)(=O)=O	-1.6
17	O=C(C1CCOCC1)N1C[C@@H]2[C@H](c3ccccc31)[C@H](CO)N2Cc1ccccc1	-4.3
18	Cc1ccc(S(=O)(=O)Nc2ccc3c(c2)C(=O)N([C@@H](C)CO)C[C@H](C)[C@@H](CN(C)C)O3)cc1	-9.8
19	CC(C)NC(=O)N(C)C[C@H]1Oc2ccc(NC(=O)Cc3ccccc3)cc2CC(=O)N([C@@H](C)CO)C[C@@H]1C	1.0
20	COc1ccc(CN2[C@H](CO)[C@@H]3c4ccccc4N(C(=O)Nc4ccccc4)C[C@@H]32)cc1	9.5
21	O=C(C[C@@H]1CC[C@H]2[C@@H](COC[C@@H](O)CN2Cc2nccs2)O1)NCc1ccccc1F	0.1
22	CCC(=O)N1CC[C@@H]2[C@@H](CO)Nc3ccc(-c4cccc(C#N)c4)cc3[C@@H]21	16.2
23	COc1cccc(S(=O)(=O)N2C[C@@H](O)COC[C@H]3O[C@H](CC(=O)N4CCN(C)CC4)CC[C@@H]32)c1	13.6
24	O=C(C[C@H]1CC[C@@H]2[C@H](COC[C@@H](O)CN2C(=O)Nc2ccc(Cl)cc2)O1)N1CCCCC1	-1.1
25	CN1C(=O)c2cc(NC(=O)Cc3cccs3)ccc2OC[C@H]2O[C@H](CC(=O)NCC3CCCCC3)CC[C@H]21	5.9
26	CCCNC(=O)C[C@@H]1CC[C@H]2[C@@H](COc3ccc(NC(=O)Nc4c(C)noc4C)cc3C(=O)N2C)O1	-2.3
27	O=C(Nc1cc(F)ccc1F)N1CCCCN2[C@H](CO)[C@@H](c3ccc(-c4cccnc4)cc3)[C@@H]2C1	-11.6
28	Cc1ccc(-c2ccc([C@@H]3[C@@H](CO)N4CCCCN(C(=O)c5ccc(F)cc5)C[C@@H]34)cc2)cc1	-2.0
29	COc1ccc(-c2ccc([C@@H]3[C@H](CO)N4CCCCN(C(=O)c5ccc6c(c5)OCO6)C[C@@H]34)cc2)cc1	0.0
30	O=C(C[C@@H]1CC[C@H]2[C@@H](COC[C@H](O)CN2C(=O)c2ccccc2F)O1)NCc1ccc(Cl)cc1	4.5
31	CO[C@@H]1CN(C)C(=O)c2cc(NC(=O)C3CC3)ccc2OC[C@@H](C)N(Cc2ccncc2)C[C@@H]1C	7.3
32	CO[C@@H]1CN(C)C(=O)c2cc(NC(=O)C3CCC3)ccc2OC[C@H](C)N(C(=O)NC(C)C)C[C@@H]1C	5.7
33	CCS(=O)(=O)Nc1ccc2c(c1)C(=O)N(C)C[C@H](OC)[C@H](C)CN(C(=O)CN(C)C)[C@H](C)CO2	-11.8
34	C[C@H](O)C#Cc1ccc([C@H]2[C@H](CO)N3CCCCN(C(=O)Nc4ccccc4)C[C@@H]23)cc1	5.8
35	CN(C)C(=O)c1ccc(-c2ccc([C@H]3[C@@H](CO)N4CCCCN(Cc5cccnc5)C[C@H]34)cc2)cc1	-2.5
36	CO[C@@H]1CN(C)C(=O)c2ccc(NC(C)=O)cc2OC[C@H](C)N(C(=O)C2CC2)C[C@@H]1C	7.9
37	O=C(c1cccc(F)c1)N1CCCCN2[C@H](CO)[C@@H](c3ccc(-c4ccncc4)cc3)[C@H]2C1	-0.3
38	Cc1ccccc1S(=O)(=O)N1CC[C@@H]2[C@@H](CO)Nc3ccc(-c4cccc(C#N)c4)cc3[C@@H]21	4.6
39	Cc1ccc(S(=O)(=O)N(C)C[C@H]2Oc3ccc(NC(=O)NC4CCCCC4)cc3C(=O)N([C@@H](C)CO)C[C@H]2C)cc1	-6.2
40	O=C(Nc1ccccc1Cl)N1C[C@H]2[C@@H](c3ccccc31)[C@H](CO)N2Cc1ccccc1	-4.2
41	C[C@H]1CN([C@@H](C)CO)C(=O)c2cc(NC(=O)CCN3CCOCC3)ccc2O[C@@H]1CN(C)C(=O)Nc1ccc(F)cc1	-3.5
42	CCCNC(=O)N1C[C@H](O)COC[C@H]2O[C@H](CC(=O)N3CCCCC3)CC[C@@H]21	6.5
43	C[C@@H]1CN([C@@H](C)CO)C(=O)c2cc(NC(=O)CCC(F)(F)F)ccc2O[C@@H]1CN(C)Cc1ccc(C(F)(F)F)cc1	-7.5
44	CC(=O)N(C)C[C@H]1OCc2ccccc2-c2c(n(C)c3ccccc23)C(=O)N([C@@H](C)CO)C[C@@H]1C	2.3
45	COCC(=O)NC[C@H]1N[C@H](CO)[C@@H]1c1ccc(C2=CCCCC2)cc1	-14.7
46	COc1cccc(C(=O)Nc2ccc3c(c2)OC[C@@H](C)N(C(=O)C2CCCC2)C[C@@H](C)[C@H](OC)CN(C)C3=O)c1	16.3
47	CC(=O)N1CCCCN2[C@H](C1)[C@H](c1ccc(-c3ccccc3)cc1)[C@@H]2CO	0.2
48	COCC(=O)N1CCCCN2[C@@H](CO)[C@@H](c3ccc(-c4cccc(C)c4)cc3)[C@@H]2C1	-4.0
49	COc1ccccc1NC(=O)N1CC[C@@H]2[C@H]1c1cc(-c3ccc(F)cc3)ccc1N(C)[C@@H]2CO	-5.7
50	C[C@@H]1CN([C@@H](C)CO)C(=O)c2cccc(NC(=O)c3nc4ccccc4s3)c2O[C@H]1CN(C)C(=O)Nc1cccc2ccccc12	-5.0

The list goes on, overlapping the part above by five compounds.
#	structure	UUG fidelity
46	COc1cccc(C(=O)Nc2ccc3c(c2)OC[C@@H](C)N(C(=O)C2CCCC2)C[C@@H](C)[C@H](OC)CN(C)C3=O)c1	16.3
47	CC(=O)N1CCCCN2[C@H](C1)[C@H](c1ccc(-c3ccccc3)cc1)[C@@H]2CO	0.2
48	COCC(=O)N1CCCCN2[C@@H](CO)[C@@H](c3ccc(-c4cccc(C)c4)cc3)[C@@H]2C1	-4.0
49	COc1ccccc1NC(=O)N1CC[C@@H]2[C@H]1c1cc(-c3ccc(F)cc3)ccc1N(C)[C@@H]2CO	-5.7
50	C[C@@H]1CN([C@@H](C)CO)C(=O)c2cccc(NC(=O)c3nc4ccccc4s3)c2O[C@H]1CN(C)C(=O)Nc1cccc2ccccc12	-5.0
51	CC(C)NC(=O)N(C)C[C@@H]1Oc2ccc(NC(=O)Cc3ccccc3)cc2C(=O)N([C@@H](C)CO)C[C@H]1C	-9.1
52	O=C(C[C@@H]1CC[C@@H]2[C@H](COC[C@@H](O)CN2S(=O)(=O)c2ccccc2)O1)NCC1CCCCC1	17.2
53	O=C(Nc1cccc(Cl)c1)N1C[C@@H]2[C@H](c3ccccc31)[C@@H](CO)N2C(=O)c1cccnc1	-16.7
54	O=C(c1ccc(F)cc1)N1CCCCN2[C@H](C1)[C@@H](c1ccc(-c3ccc(F)cc3)cc1)[C@@H]2CO	-6.2
55	Cc1ccc(S(=O)(=O)Nc2ccc3c(c2)C(=O)N([C@@H](C)CO)C[C@H](C)[C@H](CN(C)S(=O)(=O)c2cccs2)O3)cc1	-2.4
56	C[C@@H]1CN([C@@H](C)CO)C(=O)c2cccc(NC(=O)c3cnccn3)c2O[C@H]1CN(C)C(=O)Nc1ccccc1	9.2
57	O=C(C1CC1)N1CCCCN2[C@H](C1)[C@H](c1ccc(C#CC3CCCC3)cc1)[C@@H]2CO	5.5
58	C[C@@H]1CN([C@@H](C)CO)C(=O)c2cc(NS(=O)(=O)c3cn(C)cn3)ccc2O[C@@H]1CN(C)C(=O)NC1CCCCC1	-11.1
59	CCCNC(=O)N1C[C@H](C)[C@@H](OC)CN(C)C(=O)c2ccc(NC(=O)CCC)cc2OC[C@H]1C	15.7
60	COc1ccc(S(=O)(=O)N(C)C[C@@H]2Oc3c(NC(=O)C4CCCCC4)cccc3C(=O)N([C@@H](C)CO)C[C@H]2C)cc1	2.4
61	CCC(=O)N1[C@@H](CO)[C@H](c2ccc(-c3cccnc3)cc2)[C@@H]1CN(CC)C(C)=O	-4.0
62	OC[C@H]1Nc2ccc(-c3ccc(F)cc3)cc2[C@@H]2[C@H]1CCN2Cc1ccc(F)cc1	-14.9
63	COCCNC(=O)C[C@H]1CC[C@@H]2[C@@H](COc3ccc(NC(=O)Nc4cccc(F)c4)cc3C(=O)N2C)O1	0.8
64	COc1cccc(C(=O)Nc2ccc3c(c2)C(=O)N(C)C[C@H](OC)[C@@H](C)CN(CC2CC2)[C@H](C)CO3)c1	1.7
65	O=C(c1ccc2c(c1)OCO2)N1C[C@H]2[C@@H](c3ccccc31)[C@@H](CO)N2Cc1ccc2c(c1)OCO2	-0.5
66	CCCC(=O)Nc1ccc2c(c1)C(=O)N(C)C[C@@H](OC)[C@@H](C)CN(C(=O)CN(C)C)[C@H](C)CO2	-3.8
67	O=S(=O)(c1cccs1)N1CCCCN2[C@H](C1)[C@H](c1ccc(C3=CCCC3)cc1)[C@@H]2CO	9.6
68	CCCC(=O)Nc1ccc2c(c1)OC[C@@H](C)N(C(=O)Cc1cccnc1)C[C@@H](C)[C@H](OC)CN(C)C2=O	-0.7
69	CCC(=O)N1[C@H](CN(CC)C(=O)c2ccccc2)[C@H](c2ccccc2)[C@@H]1CO	-1.5
70	C[C@H](CO)N1C[C@H](C)[C@H](CN(C)C(=O)NC2CCCCC2)Oc2ccc(NS(=O)(=O)c3ccc(F)cc3)cc2CC1=O	19.3
71	O=C(c1ccncc1)N1CC[C@H]2[C@H](CO)Nc3ccc(-c4ccccc4)cc3[C@H]21	-10.7
72	COCC#Cc1ccc([C@@H]2[C@@H](CO)N3CCCCN(S(=O)(=O)c4ccccc4F)C[C@@H]23)cc1	26.0
73	CO[C@H]1CN(C)C(=O)c2ccc(NC(=O)Nc3ccccc3F)cc2OC[C@@H](C)N(C)C[C@H]1C	1.5
74	COCC(=O)N1CC[C@@H]2[C@H]1c1cc(-c3cccc(F)c3)ccc1N(C)[C@@H]2CO	-3.6
75	COc1ccccc1NC(=O)N1CCCCN2[C@H](CO)[C@@H](c3ccc(C#CC4CCCC4)cc3)[C@H]2C1	-6.7
76	Cn1cnc(CCNC(=O)C[C@@H]2CC[C@H]3[C@@H](COC[C@@H](O)CN3C(=O)Nc3ccc(F)cc3)O2)c1	-10.8
77	O=S(=O)(c1ccc(F)cc1)N1CCCCN2[C@H](CO)[C@@H](c3ccc(C#CC4CC4)cc3)[C@@H]2C1	7.4
78	OC[C@H]1[C@@H](c2ccc(-c3cccnc3)cc2)[C@H]2CN(Cc3ccccn3)CCCCN21	-38.1
79	C[C@H](CO)N1C[C@H](C)[C@H](CN(C)C(=O)NC2CCCCC2)Oc2c(NS(=O)(=O)c3cccs3)cccc2C1=O	23.5
80	O=C(CC1CC1)Nc1ccc2c(c1)[C@@H]1C[C@H](CC(=O)N3CCc4ccccc4C3)O[C@@H](CO)[C@@H]1O2	25.4
81	C[C@H](CO)N1C[C@H](C)[C@H](CN(C)Cc2ccc(C(=O)O)cc2)Oc2ccc(NC(=O)Nc3cccc4ccccc34)cc2C1=O	2.0
82	C[C@H]1CN([C@@H](C)CO)C(=O)c2cc(NC(=O)C3CC3)ccc2O[C@@H]1CN(C)C(=O)Nc1ccc(C(F)(F)F)cc1	6.9
83	COc1cccc(C(=O)Nc2ccc3c(c2)C(=O)N(C)C[C@H](OC)[C@H](C)CN(C(=O)C2CCCC2)[C@H](C)CO3)c1	20.2
84	C[C@H]1CN([C@@H](C)CO)C(=O)CCCn2nncc2CO[C@H]1CN(C)C(=O)Nc1ccccc1C(F)(F)F	29.8
85	O=C(c1cccnc1)N1C[C@H]2[C@@H](c3ccccc31)[C@@H](CO)N2C(=O)CN1CCOCC1	3.6
86	O=C(C[C@H]1CC[C@H]2[C@@H](COC[C@H](O)CN2C(=O)Cc2ccccc2)O1)NC1CCC1	-5.3
87	COc1ccc(S(=O)(=O)N(C)C[C@H]2OCc3ccccc3-c3ccccc3C(=O)N([C@@H](C)CO)C[C@H]2C)cc1	0.9
88	C[C@@H]1CN([C@@H](C)CO)C(=O)c2cc(NS(=O)(=O)c3cn(C)cn3)ccc2O[C@@H]1CN(C)Cc1ccncc1	-22.1
